Assay outcomes from PubChem.
Mtb MenB inh – blocks the Mycobacterium tuberculosis MenB enzyme | 0.43% of 100,000 active | MenB enzyme assay, absorbance read-out; some hits fall short of the stated cut | P9WNP5 | inhibition, %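 (about 12 µg/mL by stock and volumes)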;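 active = mean of two replicates above 30%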;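 note: 0% = no compound and 100% = wells with inactive enzyme; the first replicate is given; strong numbers were not always called active; inactives centre near -10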
Target sequence (P9WNP5 whole entry, looked up): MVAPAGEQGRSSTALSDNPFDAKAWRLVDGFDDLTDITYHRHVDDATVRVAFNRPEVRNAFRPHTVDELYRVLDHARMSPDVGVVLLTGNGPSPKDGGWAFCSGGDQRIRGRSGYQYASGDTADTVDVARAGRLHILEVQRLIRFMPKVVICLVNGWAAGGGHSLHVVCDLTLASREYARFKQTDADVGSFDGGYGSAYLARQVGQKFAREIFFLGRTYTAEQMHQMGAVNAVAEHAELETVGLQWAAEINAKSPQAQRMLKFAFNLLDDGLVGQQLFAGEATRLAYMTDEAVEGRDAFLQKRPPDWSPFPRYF
Mtb MbtI inh – inhibitors of Mycobacterium tuberculosis siderophore enzyme MbtI | P9WFX0 | purified MbtI enzyme, fluorescence intensity read-out | inhibition, %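 (about 17 µg/mL by stock and volumes)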 | 0.89% of 100,000 active | AID 493033;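 active = above 50% in both replicates, above 80% if mildly self-fluorescent; inactive = the rest, strongly fluorescent compounds included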;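 note: 0% = mean of negative and 100% = mean of positive controls; one replicate is shown; some compounds called inactive have numbers as strong as hits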
Target sequence (P9WFX0 whole entry, looked up): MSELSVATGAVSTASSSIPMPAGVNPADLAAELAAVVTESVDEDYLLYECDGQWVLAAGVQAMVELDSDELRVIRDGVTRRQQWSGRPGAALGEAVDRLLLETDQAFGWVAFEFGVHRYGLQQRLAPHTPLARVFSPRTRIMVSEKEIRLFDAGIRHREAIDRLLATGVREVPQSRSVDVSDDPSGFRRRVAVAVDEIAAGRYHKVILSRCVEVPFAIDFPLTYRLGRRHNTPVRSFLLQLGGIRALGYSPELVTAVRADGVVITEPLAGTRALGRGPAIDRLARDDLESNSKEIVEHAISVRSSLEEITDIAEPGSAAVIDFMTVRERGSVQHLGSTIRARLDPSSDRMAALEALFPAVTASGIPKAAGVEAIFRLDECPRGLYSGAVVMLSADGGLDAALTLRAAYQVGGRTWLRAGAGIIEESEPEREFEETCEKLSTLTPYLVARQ
PV pol inh – inhibitors of poliovirus RNA polymerase binding and polymerization. poliovirus polymerase elongation, fluorescence polarization; active compounds read low. % elongation, % (compound at 16.7 µg/mL). 0.66% of 150,000 active. AID 588519; in the data active = % elongation below about 90%; note: some results filed as inactive read as strong as hits
PV pol inh intensity – second read-out of PV pol inh, no call of its own (marks repeat the call); % elongation; measured here: total intensity read-out; formula for this scale not given here;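 total fluorescence in place of polarization; lower means less elongation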
* hit, by the source's call; / = no result given; & = joins results of further samples.

SMILES	Mtb MenB inh	Mtb MbtI inh	PV pol inh	PV pol inh intensity
CN(Cc1ccccc1)C(=O)c1cc2nc(-c3ccco3)cc(C(F)(F)F)n2n1	2	-10	97	104
CC(=O)N(Cc1cc2cc(C)ccc2[nH]c1=O)C1CCCC1	-49	-96	105	102
CC(C)NS(=O)(=O)c1ccc(NC(=O)CSC(C)(C)C)cc1	-8	-7	99	102
Cc1ccc(OCCCn2cc(/C=C3/C(=O)NC(=O)N(C4CCCCC4)C3=O)c3ccccc32)cc1	1	/	45	251
O=C(N1CCCCCC1)C12CC3CC(CC(Cl)(C3)C1)C2	/	-2	99	94
Cc1ccccc1-n1c(N)cc(=O)[nH]c1=S	-26	9	100	99
O=C(CCc1ccco1)N(Cc1cccs1)c1ccc2c(c1)OCCO2	7	11	96	101
COc1ccc(S(=O)(=O)CCC(=O)Nc2cc(C)ccc2OC)cc1	-8	17	99	104
CN(C)c1nc(C(N)=O)nc(N(C)C)n1	1	-4	104	101
C/C=C/C=N/Nc1nc2ccccc2s1	-8	-3	103	104
COc1ccccc1-c1nnc(SCc2cccc(S(=O)(=O)N(C)C)c2)n1N	-17	15	103	108
CCCn1c(SCc2cc(OC)c(OC)cc2C)n[nH]c1=O	-19	-1	107	106
CCOC(=O)C1CCCN(C(=O)c2cn(CC)c3ccc(S(=O)(=O)N(C)C4CCCCC4)cc3c2=O)C1 (stereo not drawn)	-4	-3	99	104
C/C(=N\N=C1\NC(=O)C(CC(=O)Nc2ccc(C)c(Cl)c2)S1)C(C)(C)C (stereo not drawn)	-24	-17	103	101
COC(=O)c1sccc1NC(=O)Nc1cc(C)oc1C(F)(F)F	2	3	103	101
COc1ccc(OCC(=O)NCc2ccc(-c3nc4ncccc4o3)cc2)cc1	19	12	101	101
CCOC(=O)c1ccccc1NC(=O)/C(C#N)=C/c1ccc(-c2ccc(Cl)cc2)o1	1	10	71	168
CN(C)c1cccc(C(=O)OCC(N)=O)c1	/	-16	102	109
O=C(O)c1ccccc1SCc1cn2cc(Br)ccc2n1	/	-7	101	101
O=c1[nH]c(=O)n(Cc2ccccc2)c2nc[nH]c12	-5	-17	102	103
O=C1Nc2ccc(I)cc2/C1=C/c1cc(Br)c(O)c(Br)c1	-1	0	113&131	116&147
O=C(OCc1ncc(-c2ccccc2)o1)c1ccc(Cl)nc1	-46	-4	104	111
COc1cc(Nc2nc3ccccc3nc2N=CN(C)C)cc(OC)c1OC	-12	4	103	104
COC(=O)C1=C(C)N(C)C(=O)NC1c1ccccc1 (stereo not drawn)	-9	3	105	100
CC1(C)OC(=O)C(=Cc2ccc(-c3ccccc3)o2)C(=O)O1	12	8	101	100
Cn1ccnc1SCc1csc(-c2ccccc2)n1	/	-2	105	108
Cc1oc(-c2cccc(Cl)c2)nc1CN1C(=O)CCCc2ccccc21	-9	1	102	102
CCOC(=O)Nc1ccc2c(COC(=O)[C@H](C)NC(=O)c3ccco3)cc(=O)oc2c1	15	108	103	104
Cc1sc2nc3ccc(N4CCCCC4)nn3c(=O)c2c1C	4	19	98	106
O=C(CN1CCCCC1)NC1CC2CCC1C2 (stereo not drawn)	8	-2	101	105

Laid out differently: 7 of the compounds above.
The line under a structure holds: Mtb MenB inh, Mtb MbtI inh, PV pol inh, PV pol inh intensity
COC(=O)C1=C(C)N(C)C(=O)NC1c1ccccc1 (stereo not drawn)
  -9, 3, 105, 100
CC1(C)OC(=O)C(=Cc2ccc(-c3ccccc3)o2)C(=O)O1
  12, 8, 101, 100
Cn1ccnc1SCc1csc(-c2ccccc2)n1
  /, -2, 105, 108
Cc1oc(-c2cccc(Cl)c2)nc1CN1C(=O)CCCc2ccccc21
  -9, 1, 102, 102
CCOC(=O)Nc1ccc2c(COC(=O)[C@H](C)NC(=O)c3ccco3)cc(=O)oc2c1
  15, 108, 103, 104
Cc1sc2nc3ccc(N4CCCCC4)nn3c(=O)c2c1C
  4, 19, 98, 106
O=C(CN1CCCCC1)NC1CC2CCC1C2 (stereo not drawn)
  8, -2, 101, 105

Further entries
SMILES	Mtb MenB inh	Mtb MbtI inh	PV pol inh	PV pol inh intensity
S=C(NCCCN1CCOCC1)N1CC2CCC(CC2)C1	5	-4	112	116
Cc1cc(C(=O)CN2C(=O)NC(C)(c3ccccc3)C2=O)c(C)n1C (stereo not drawn)	3	-8	112	120
CC1Cc2cc(C(=O)Nc3ccc(C(F)(F)F)cc3)ccc2N1S(C)(=O)=O (stereo not drawn)	1	9	96	100
COc1ccc(CCNC(=O)c2cc3n(n2)C(C(F)(F)F)CC(C2CC2)N3)cc1OC (stereo not drawn)	-40	-10	104	102
N#CCC(=O)c1ccc(F)cc1	-49	0	103	108
Cc1nc2ccccc2n1C(=O)N(C)C	27	-11	100	101
CC1=Nc2ccccc2NC(C)(C)C1	-39	4	102	103
C/C(=N/O)C1CCCCCCCCCCC1	-10	/	107	108
O=C(N1CC23C=CC(CC2CC12CCCCC2)O3)C(F)(F)F (stereo not drawn)	/	-8	101	102
COc1ccccc1C(=O)OCc1ccc(F)cc1	/	-1	101	106
CC1CCCCN1C(=O)CNC(=O)Cc1ccc(Cl)cc1 (stereo not drawn)	4	-4	100	101
NC(=O)c1ccc(C(N)=O)cc1	5	-11	101	102
Cc1oc2cc(OC(=O)C(C)NC(=O)OCc3ccccc3)ccc2c(=O)c1Oc1ccccc1 (stereo not drawn)	2	/	100	92
O=c1c(NCCCN2CCOCC2)c(Br)cnn1-c1ccccc1	-6	/	107	113
C=CCn1c2ccccc2c2ccccc21	-4	53	105	101
CCn1nnnc1SCC(=O)c1ccc(OC)cc1OC	-20	-27	103	103
CC1OC(Nc2ccc(OC(F)(F)F)cc2)C(O)C(O)C1O (stereo not drawn)	-13	-3	102	103
CN1CCN(S(=O)(=O)c2ccc(Sc3nnc(-c4cccs4)n3-c3ccccc3)nc2)CC1	-15	-4	103	109
NNC(=O)Cn1nnc(N2CCOCC2)n1	3	6	102	106
N/C(=N\c1nc(=O)c2ccccc2s1)NC(=O)Nc1ccc(F)cc1	-1	15	103	103
COC(=O)CC(C1=C(O)CCCC1=O)C1=C(O)CCCC1=O	-51	36	101	103
O=S1(=O)NC(c2cccc(Br)c2)Nc2ccccc21 (stereo not drawn)	11	-10	100	105
CC(C)(C)c1ccc(O)c(C(C)(C)C)c1O	/	-12	100	98
CCn1c(C(=O)N2CCC(C(=O)NC3CCC(C)CC3)CC2)cc2sccc21 (stereo not drawn)	12	2	100	103
CCN1CCCC1CNc1cc(C)c2ccc(C)cc2n1 (stereo not drawn)	-20	4	88*	91*
Cn1c(=O)[nH]c(=O)c2c1nc(Sc1ccccc1)n2Cc1ccccc1	-10	-13	100	101
COc1cc(CNCCO)c(Br)cc1OCC(N)=O	-2	-7	100	102
CC(C)CCOc1ccc(C2(C)NC(=O)N(CN3CCOCC3)C2=O)cc1 (stereo not drawn)	-11	/	109	113
O=C1COc2ccc(C(=O)CSc3nnc(-c4ccc(O)cc4)c(-c4ccc(O)cc4)n3)cc2N1	-66	1	102	98
CCOc1ccc(S(=O)(=O)N/N=C(\C)c2cccnc2)cc1	-15	12	105	101
CS(=O)(=O)N(CCC#N)Cc1ccco1	-12	/	109	112
CCCc1c(C(=O)NC2CCN(Cc3ccccc3)CC2)cnn1-c1ccccc1	-13	-4	102	104
CCn1c(SCC(=O)N2CCCC2)nc2ccccc21	2	-1	102	105
CC(C)(C)C1CCc2[nH]c3ccccc3c2C1 (stereo not drawn)	-14	5	102	106
O=C1CC(c2ccccc2)Cc2nc3ncnn3cc21 (stereo not drawn)	6	-9	100	102
Cc1c(C(=O)Nc2ccccc2)cnn1-c1ccc(F)cc1	0	-10	106	117
N=C(N)SCC1CN=C(N)S1 (stereo not drawn)	-19	-2&1	99	101
O=C(O)c1ccc(NS(=O)(=O)c2ccc(N3C(=O)CCC3=O)cc2)cc1	-10	13	99	101
CCCN(CCC)Cc1c(O)ccc2c(=O)c(-c3ccccc3)coc12	-12	74	104	105
Cc1cc(C)cc(N(C(=O)C(C)(C)C)C2C=CS(=O)(=O)C2)c1 (stereo not drawn)	-1	-3	101	102
Cc1cc(SCCN2CCOCC2)nc2ccccc12	25	10	101	101
Cc1cc(C)c2c(c1)CC(C)(C)/C(=N/NC(=O)CC#N)C2=O	-8	-6	103	103
O=C(COc1ccccc1)NC(=S)Nc1ccc2[nH]c(=O)[nH]c2c1	-11	-5	104	106
Nc1ccc2c(c1)N1CCN=C1S2	3	27	99	104
CCn1cc(SCC(=O)Nc2nc3ccccc3s2)c2ccccc21	-27	-12	100	102
O=C(O)CNC(=O)CSc1ccc(Cl)cc1	-3	-9	102	108
O=C(NC1CCCCC1)C(Cc1ccccc1)N1C(=O)C2C3C=CC(C3)C2C1=O (stereo not drawn)	36	-2	99	102
Cc1ccc(-c2ccccc2)n1-c1ccc(O)cc1	5	14	103	104
CC(C)(C)C(=O)c1sc2c(c1N)c(=O)[nH]c(=O)n2C1CCCCC1	-9	-9	105	114
COC(=O)C1CCN1C1CCCCC1 (stereo not drawn)	/	-7	103	100
S=C(Nc1ccccn1)Nc1ccccn1	-10	6	103	104
COc1ccc(-c2cc(C(=O)N(C)c3cccc(C)c3)no2)cc1S(=O)(=O)N1CCC(C)CC1	1	-13	101	101
N#CCSc1ccccc1C(=O)O	9	0	94	94
Cn1c(=S)[nH]c2sccc2c1=O	-38	25	98	107
COc1ccc(CCN(C)S(=O)(=O)c2ccc(Cl)s2)cc1OC	-25	8	98	100
CCCCN1C(=O)/C(=C\c2ccc3c(c2)OCO3)SC1=S	-66	-3	102	101
CN(CC(=O)Nc1cc(S(C)(=O)=O)ccc1Cl)Cc1nc2ccccc2c(=O)[nH]1	-48	-6	108	108
COC(=O)c1cc2sccc2n1C	6	19	104	97
CCS(=O)(=O)Nc1cc2c3c(n(S(=O)(=O)CC)c2cc1OC)CCCC3=O	8	1	100	100
NC(=O)CSc1ccccc1NC(=O)c1ccc(=O)[nH]c1	-37	13	103	108

Single records, as listed above.
Entry for CN(C)c1cccc(C(=O)OCC(N)=O)c1 = Mtb MenB inh = /; Mtb MbtI inh = -16; PV pol inh = 102; PV pol inh intensity = 109
Entry for CC1Cc2cc(C(=O)Nc3ccc(C(F)(F)F)cc3)ccc2N1S(C)(=O)=O (stereo not drawn) = Mtb MenB inh = 1; Mtb MbtI inh = 9; PV pol inh = 96; PV pol inh intensity = 100

Next section:
SMILES	Mtb MenB inh	Mtb MbtI inh	PV pol inh	PV pol inh intensity
C=CCNC(=O)c1ccc(C)c(S(=O)(=O)N(CC)CC)c1	-22	55	98	93
COc1ccccc1N(C)S(=O)(=O)c1ccc(Cl)c(C(=O)O)c1	11	-54	97	102
Nc1nc(N)nc(N2C(=O)c3ccccc3C2=O)n1	-32	3	100	102
Cc1nc(Cc2nnc(SCC(=O)N3c4ccccc4Sc4ccccc43)o2)cs1	-50	-4	106	97
Cc1ccc(Sc2ccc(CO)o2)cc1	-28	-6	100	100
O=C1S/C(=C\c2ccco2)C(=O)N1c1ccccc1	/	-4	103	105
CCOC(=O)c1c(N)n(C2CCCCC2)c2nc3ccccc3nc12	-26	-69	104	105
CN(C(=O)/C=C\C(=O)O)C1CCS(=O)(=O)C1 (stereo not drawn)	5	1	102	100
C=CCN1C(=O)CS/C1=N\S(=O)(=O)c1ccc(Cl)s1	-5	-4	106	111
CC(Sc1nncn1C)C(=O)Nc1ccc(Cl)cc1 (stereo not drawn)	-8	-6	102	101
CCCCC/C=C\C/C=C\C/C=C\C/C=C\CCCC(=O)N[C@H](C)CO	4	-4	100&103	106&105
O=C(O)CCCC(=O)N1CCN(S(=O)(=O)c2ccc(Br)s2)CC1	-17	2	102	102
CS(=O)(=O)c1ccc(C(=O)NC2CCCCC2)cc1	-2	-11	102	102
CNC(=O)N1c2ccccc2NC(=O)CC1C (stereo not drawn)	13	7	102	96
COC(=O)c1cn(NC(=O)CC2CCCCC2)c(=O)c2ccccc12	-10	9	100	104
CCOc1ccc(-n2c(=O)c3sccc3n(CC(=O)Nc3cccc(C(F)(F)F)c3)c2=O)cc1	-14	-11	104	105
Cc1ccccc1OCCCn1cnc2ccccc21	7	/	103	102
CCn1c(-c2ccc(Cl)cc2)csc1=Nc1ccc(O)cc1	-19	-4	101	101
CCOC(=O)C1=C(N)Oc2c(c(=O)oc3ccccc23)C1c1ccccc1 (stereo not drawn)	7	-22	103	109
NC(=O)NC(=O)CC1Nc2ccccc2NC1=O (stereo not drawn)	-24	104	101	99
FC(F)(F)COc1ccc(-c2nc(-c3ccc(Cl)cc3)no2)cn1	-19	-6	101	96
CC(=O)NC(Nc1ccc(S(N)(=O)=O)cc1)(C(F)(F)F)C(F)(F)F	-1	-2	101	105
N#Cc1ccc(OCC(=O)N2CCCc3ccccc32)cc1	/	-2	102	98
CSc1nc(C)c(Oc2ccccc2)c(=O)n1C	-9	-3	101	102
CCCC1CCC(=NN=C(N)N)CC1 (stereo not drawn)	-18	7	105	110
Cc1ccc(Nc2nc(CSc3nnnn3C3CC3)cs2)cc1	-14	0	116	123
O=C(Nc1cccc2ccccc12)c1cnn2c1NC(c1ccccc1)CC2C(F)(F)F (stereo not drawn)	-32	/	111	110

Not a hit list. Share with any hit: about 1.8%.
